Source: PubChem (National Center for Advancing Translational Sciences (NCATS))
Rango dissoc inh: qHTS Assay for Inhibitors of RanGTP induced Rango (Ran-regulated importin-beta cargo) - Importin beta complex dissociation; Biochemical FRET Rango-importin beta, RanGTP-induced dissociation; 340,000 tested, 0.071% active; Snurportin-1 (Homo sapiens) + GTP-binding nuclear protein Ran (Homo sapiens) + Importin …; Potency, µM (series often up to 46.1 µM), without a hit: at the top dose activity change, negative = inhibition; active means falling FRET ratio curve, often poorly fitted, with flat reads before Ran was added; inconclusive means other falling curves, or compound fluorescence or quenching; inactive means flat or rising ratio curve;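 further: potency means the concentration at half of the fitted maximal effect; % of control where 0% means no effect; nearly all actives have a fitted effect of over 45% in size; -100% = wells without RanGTP and RCC1; the record marks most hits as doubtful in a second field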
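Rango FRET biosensor (snurportin-1 IBB flanked by N-terminal EYFP and C-terminal CFP10) at 0.1 uM, with 0.25 uM importin beta in PBS, 1mM DTT, 0.02% Tween-20, 0.1% BSA. 0.6 uM Ran, 2mM GTP and 0.2 uM RCC1 were then added for 45 min at room temperature. Inhibition read as loss of FRET rise.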
GLA inh pH 4.5: qHTS Assay for Inhibitors of Human alpha-Galactosidase at pH 4.5. Alpha-galactosidase A (Homo sapiens), P06280. purified enzyme, 4-MU-alpha-Gal fluorescence, pH 4.5. activity change, negative = inhibition, % at 105 µM. 230,000 tested, under 10 active; inconclusive = small, poorly fitted or top-dose-only inhibition, or a rising curve; inactive = flat fitted curve, though single readings scatter; no compound was filed as active;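 further: 0% = full activity with enzyme and -100% = basal without enzyme; dose as in the result columns while the protocol names 77 µM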
Rango complex inh: qHTS Assay for Inhibitors of Rango (Ran-regulated importin-beta cargo) - Importin beta complex formation. AID 540263, 2011. Rango CFP/YFP FRET sensor + importin beta, 45 min. 340,000 tested, 0.031% active. Potency, µM (top dose mostly 92.2 µM), for inactives: at the top dose inhibition of complex formation. Importin subunit beta-1 (Homo sapiens), Q14974; active = rising FRET ratio curve, often small or poorly fitted; inconclusive = mostly compound fluorescence or quenching in the first reads; inactive = flat curves in all reads;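 further: potency means the concentration at half of the fitted maximal effect; 0% = DMSO wells and 100% = buffer wells lacking importin beta; nearly all actives have a fitted effect of over 15% in size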
Target sequence (Q14974 whole entry, looked up): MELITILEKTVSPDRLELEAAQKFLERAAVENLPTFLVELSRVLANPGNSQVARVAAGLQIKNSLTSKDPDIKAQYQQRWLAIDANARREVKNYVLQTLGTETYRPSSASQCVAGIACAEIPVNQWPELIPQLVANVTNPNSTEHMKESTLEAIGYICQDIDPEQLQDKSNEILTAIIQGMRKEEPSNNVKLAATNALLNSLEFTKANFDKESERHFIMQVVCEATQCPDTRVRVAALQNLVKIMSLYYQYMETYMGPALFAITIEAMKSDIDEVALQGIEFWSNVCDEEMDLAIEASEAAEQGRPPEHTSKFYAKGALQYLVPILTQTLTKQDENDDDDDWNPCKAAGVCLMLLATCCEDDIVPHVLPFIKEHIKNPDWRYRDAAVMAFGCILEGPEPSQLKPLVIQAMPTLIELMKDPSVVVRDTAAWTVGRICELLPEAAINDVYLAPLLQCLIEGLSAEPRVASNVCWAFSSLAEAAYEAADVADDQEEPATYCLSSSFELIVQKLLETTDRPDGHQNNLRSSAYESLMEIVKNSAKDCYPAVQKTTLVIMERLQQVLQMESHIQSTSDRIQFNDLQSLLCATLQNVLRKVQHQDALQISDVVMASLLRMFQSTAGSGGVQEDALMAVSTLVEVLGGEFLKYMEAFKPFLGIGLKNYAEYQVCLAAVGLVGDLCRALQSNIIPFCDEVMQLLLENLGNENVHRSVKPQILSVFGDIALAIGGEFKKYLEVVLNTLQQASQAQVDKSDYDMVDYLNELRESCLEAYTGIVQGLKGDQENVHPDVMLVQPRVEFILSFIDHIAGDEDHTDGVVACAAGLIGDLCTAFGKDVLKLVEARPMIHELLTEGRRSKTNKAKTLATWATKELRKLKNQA
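FRET biosensor (snurportin 1 IBB flanked by EYFP and cerulean), 50 nM, with compound 5 min, then 0.125 microM importin beta in PBS, 1 mM DTT, 0.02% Tween-20, 0.1% BSA. CFP/YFP ratio read after 45 min at room temperature; pre-read flags interference.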
miR-21 reporter: qHTS Assay for Modulators of miRNAs and/orActivators of miR-21 | AID 2288, 2010 | 340,000 tested, under 10 active | Potency, µM (highest dose often 38.3 µM), without a hit: at the top dose reporter change, positive = more light | HeLa miR-21 FLuc reporter, luciferase, 48 h; active = well fitted rising curve with a large enough effect; inconclusive = small, poorly fitted or top-dose-only effect; inactive = no such curve, though single readings can be large or run the other way;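 further: % of control where 0% means no effect; miR-21 action dims this reporter so a rising signal means less miR-21 action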
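Luminescence from a firefly luciferase reporter carrying a miR-21 binding site downstream, stably expressed under a CMV promoter in HeLa cells that make miR-21 endogenously, reports miRNA modulation after 48 h compound exposure up to approximately 40uM final.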
Active calls of the source: *; u = inconclusive; x = not tested or not shown; & = joins results of further samples. A portion of the library; the hit share may differ from the screen's.

SMILES | Rango dissoc inh | GLA inh pH 4.5 | Rango complex inh | miR-21 reporter
CCN1C(=O)[C@H]2[C@@H](c3ccc(Cl)cc3)N3C(=O)CN(CC4CC4)C(=O)[C@@]3(C)[C@H]2C1=O | 1% | x | 1.4% | 0%
O=C(NC1CCCCC1)c1ccc2c(c1)OCO2 | u | x | -1.2% | -52%
CCc1ccc(NC(=O)CSCc2ccc(C(=O)O)cc2)cc1 | 8% | -1 | 3.0% | -13%
O=C(NCC1CCCO1)C1CC(=O)N(c2ccccc2)C1 (stereo not given) | 16% | x | 0.4% | 0%
Cc1nonc1CN(C)C(=O)CC1C(=O)NCCN1Cc1ccccc1C(F)(F)F (stereo not given) | -5% | 1 | -1.0% | -2%
CN(CCc1ccccn1)C(=O)CCC1CCCN(Cc2ccccc2OC(F)F)C1 (stereo not given) | 2% | 0 | 0.3% | -2%
CCN1CCSc2ccc(C(=O)NCc3ccc(OC(C)C)cc3)cc21 | 10% | x | -0.1% | 0%&15%
COc1ccc2c(c1)oc1c(SCc3nc4ccccc4[nH]3)nc(C)nc12 | -23% | x | u | x
Cc1ccc(OCC(=O)NNC(=O)[C@@H]2CCCC[C@@H]2C(=O)O)c(Br)c1 | -1% | x | -2.0% | -14%
Cc1ccc(S(=O)(=O)N2CCC(C(=O)Nc3cc(C(F)(F)F)ccc3N3CCOCC3)CC2)cc1C | 8% | x | -0.9% | x
O=C1CCC([N+](=O)[O-])C(c2ccccc2C(F)(F)F)N1 (stereo not given) | 6% | x | 5.5% | -1%
O=C(OCCOc1ccccc1F)c1cccc(S(=O)(=O)N2CCOCC2)c1 | -16% | x | -1.1% | x
O=C(Nc1nc(-c2cccc(Br)c2)cs1)Oc1ccccc1 | 23% | -17 | 2.8% | -32%
CCCCOc1ccc(-c2csc(N)n2)cc1[N+](=O)[O-] | 4% | 6 | 0.3% | -77%
CCCCn1c(N)c(N(CC)C(=O)c2ccc(C#N)cc2)c(=O)[nH]c1=O | 25% | x | -0.5% | 1%
CC(=O)Nc1ccc(NC(=O)C(C)OC(=O)CCC(=O)c2ccc(F)cc2)cc1 (stereo not given) | 13% | 0 | -0.2% | -14%
CC(=O)c1c(C)[nH]c(C(=O)Nc2cc(S(=O)(=O)N3CCCCC3)ccc2C)c1C | -6% | x | -3.5% | x
O=C(Cc1cccc(NC(=O)C2CCCN(C(=O)CCc3ccccc3)C2)c1)Nc1ccc(C(=O)N2CCCCC2)cc1 (stereo not given) | -11% | x | -0.6% | x
CCc1cccc(NC(=O)c2ccc(Br)o2)c1 | -5% | -4 | -0.2% | -39%
CCCN(CCC(=O)Nc1ccccc1F)CC1CC1 | 5% | -3 | -0.2% | 0%
Cc1cc(C)cc(OCCNC(=O)CCc2ccccc2)c1 | 3% | x | -1.2% | -3%
CCN1CCCC1CN(Cc1cc2cc(C)cc(C)c2[nH]c1=O)C(=O)Nc1ccccc1OC (stereo not given) | 8% | 5 | -2.2% | -2%
CCCc1nnc(SCC(=O)N2CCCCC2C)n1CC (stereo not given) | 0% | u | -0.6% | -2%
NNC(=O)c1ccc2c(c1)S(=O)(=O)NNC2=O | 0% | -4 | u | -2%
c1ccc(-c2ccccc2OCCN2CCCCC2)cc1 | -3% | -1 | 4.2% | -6%
Cc1cccc(OCC(=O)Nc2ccc3c(c2)nc2n3CCOC2)c1 | -8% | x | -1.1% | -22%
COc1ccc(C(=O)CNc2ccccc2Br)cc1 | 1% | x | -3.5% | -41%
CC(C)C(NC(=O)c1ccccc1NC(=O)c1ccccc1)C(=O)NNC(=O)c1ccncc1 (stereo not given) | 5% | x | 3.6% | -2%
CC(=O)c1cccc(Nc2c3c(nc4ccccc24)CCC3)c1 | -1% | x | 0.2% | 25%
O=C(c1ccccc1)c1ccc2c(c1)OCCCO2 | -9% | -5 | -1.3% | -72%
Cc1ccc(N2C(=O)C3C4C=CC(CC4)C3C2=O)cc1Br (stereo not given) | -1% | x | -0.9% | 1%
COc1cc(C(=O)NC(=S)Nc2csc(-c3ccc(F)cc3)n2)cc(OC)c1OC | 2% | -6 | -1.2% | -11%
COc1ccc(-c2csc(NC(=O)c3ccc(S(=O)(=O)N4CCc5ccccc5C4)cc3)n2)cc1 | -2% | -2 | 0.5% | 10%
CCCCn1c(N)nc2ccccc21 | 12% | 6 | 0.8% | 3%
O=C(CCN1C(=O)/C(=C/c2ccccc2F)SC1=S)NCCc1ccc(O)cc1 | 13% | x | 1.3% | 0%
O=S1(=O)CCOC[C@H](Cc2ccccc2)N1Cc1cccc(C(F)(F)F)c1 | -23% | x | -2.2% | x
CS(=O)(=O)c1cnc(-c2ccccc2)nc1-c1ccccc1Cl | 4% | 2 | 0.5% | 8%
Cc1ccc(OCC(=O)Nc2ccc(NC(=O)c3ccco3)cc2)c(C)c1 | -11% | x | 0.1% | 0%
CCCCNC(=O)c1ccc2c(c1)S(=O)(=O)c1ccccc1C2=O | 1% | x | -2.9% | -1%
Cc1ccnc(NC(=O)c2cc3ccccc3oc2=O)c1 | 9% | 4 | 2.3% | -68%
COC(=O)Cc1c(C(=O)OC)nnn1-c1ccc(OC)cc1 | 17% | 1 | 0.0% | -8%
COC(CN(C(=O)CCl)C(C(=O)NC1CCCCC1)c1ccc(Cl)cc1)OC (stereo not given) | 0% | 2 | -3.4% | -3%
O=C1C2CC=CCC2C(=O)N1c1ncn[nH]1 (stereo not given) | -14% | -1 | 11% | 1%
CCNc1nc(C23CC4CC(CC(C4)C2)C3)cs1 | 12% | 1 | 3.7% | 1%
O=C(NCc1ccccc1)c1cc2nc(C3CC3)cc(C(F)(F)F)n2n1 | -10% | 8 | -0.7% | -12%
CC(OC(=O)c1cc2ccccc2[nH]1)C(=O)N(C)c1ccccc1 (stereo not given) | 10% | x | -3.5% | x
OC(COc1ccccc1)CN1CCN(c2ncccn2)CC1 (stereo not given) | -17% | -20 | 2.0% | -4%
CCN(C(=O)CN1CCCCC1)C1(C)C(=O)c2ccccc2C1=O | -14% | 3 | 1.5% | 1%
COc1ccc(NS(=O)(=O)c2cc(NC(=O)c3cccnc3Cl)ccc2N2CCCC2)cc1 | -8% | -23 | 0.3% | -5%
CCC1CC2(C)NC(=O)c3c(sc4c3CC(C)(C)OC4)N2C1=O (stereo not given) | 9% | 0 | u | -5%

Compounds from the list above with a furan ring, fused or not (three):
SMILES | Rango dissoc inh | GLA inh pH 4.5 | Rango complex inh | miR-21 reporter
COc1ccc2c(c1)oc1c(SCc3nc4ccccc4[nH]3)nc(C)nc12 | -23% | x | u | x
CCc1cccc(NC(=O)c2ccc(Br)o2)c1 | -5% | -4 | -0.2% | -39%
Cc1ccc(OCC(=O)Nc2ccc(NC(=O)c3ccco3)cc2)c(C)c1 | -11% | x | 0.1% | 0%

Additional results follow.
SMILES | Rango dissoc inh | GLA inh pH 4.5 | Rango complex inh | miR-21 reporter
COc1ccc(S(=O)(=O)N(C)CC(=O)NCCc2ccccc2)cc1OC | -1% | x | 1.9% | -6%
COc1ccc(CN2C(=O)c3cccnc3C2Nc2cc(Cl)c(OC)cc2OC)cc1 (stereo not given) | 10% | 0 | 0.3% | -2%
COc1ccc(-c2c(C#N)sc(C(N)=O)c2-c2ccc(OC)cc2)cc1 | -13% | -9 | -1.8% | 14%
CCOC(=O)c1ccc(Cl)c(NC(=O)c2ccc(-c3ccccc3)cc2)c1 | -2% | -4 | 3.1% | -8%
COC(=O)Cc1ccc(NC(=S)N2CCCC(C)C2)cc1 (stereo not given) | -2% | 7 | -1.5% | -2%
CCC(C)(C)NC(=O)c1ccc2c(c1)N(CC(=O)N1CCCC1)C(=O)C(C)(C)O2 | 19% | x | 1.6% | 0%
COc1cccc(-c2csc3ncnc(Sc4nnnn4C)c23)c1 | 17% | x | -0.4% | x
CC(=O)c1ccc(N2CCN(c3ccc(S(=O)(=O)NCCCN(C)C)cc3[N+](=O)[O-])CC2)cc1 | 1% | -3 | -0.3% | 15%
CC(C)CCNC(=O)C1CCC(CNc2c(N3CCC(C)CC3)c(=O)c2=O)CC1 (stereo not given) | -8% | -8 | -0.5% | -1%
O=c1cc(-c2ccc(Cl)c(Cl)c2)[nH][nH]1 | -1% | 3 | -0.5% | -5%

Two compounds drawn at random from the list so far, as already listed:
SMILES | Rango dissoc inh | GLA inh pH 4.5 | Rango complex inh | miR-21 reporter
CC(C)CCNC(=O)C1CCC(CNc2c(N3CCC(C)CC3)c(=O)c2=O)CC1 (stereo not given) | -8% | -8 | -0.5% | -1%
COc1cccc(-c2csc3ncnc(Sc4nnnn4C)c23)c1 | 17% | x | -0.4% | x

(list continues)
SMILES | Rango dissoc inh | GLA inh pH 4.5 | Rango complex inh | miR-21 reporter
Nc1ccc(/C=C/C(=O)c2cccs2)cc1 | u | -12 | u | -50%
CC1=C(C(=O)Nc2ccccn2)C(c2cccnc2)n2nnnc2N1 (stereo not given) | -22% | -1 | -3.1% | -14%
CCN(Cc1ccccc1)c1ccc(N=Nc2nn(C)c(C)c2[N+](=O)[O-])cc1 | 23% | -2 | -0.2% | -61%
Cc1ccc(-c2nnn(CC(=O)N(CC(=O)NC3CCCC3)c3cccc(F)c3)n2)o1 | 7% | x | -1.2% | -2%
COc1cc2c3nc4n(c(=O)c3n(CC(=O)NCC3CCCO3)c2cc1OC)CCS4 (stereo not given) | 6% | x | 2.7% | -1%
COc1ccccc1[C@@H]1C(c2ccccc2)=NN(c2ccccc2)[C@H]1C(=O)N1CCOC1=O | u | 7 | u | x
CCN1C(=O)[C@H]2[C@@H](c3ccc(-c4ccccc4)cc3)N[C@@](C)(C(=O)OC)[C@H]2C1=O | -18% | x | -2.6% | x
CC1(C)CC(=O)C2=C(C1)OC(N)=C(C#N)C2C1C=CCCC1 (stereo not given) | 8% | -9 | -3.5% | 3%
Cn1ncc2c(NNC(=O)c3ccc(Cl)cc3Cl)ncnc21 | 1% | 0 | -3.4% | -10%
CN(C)C(=O)C(=O)c1cccn1-c1cccc(Cl)c1C#N | -12% | 3 | 5.1% | -1%
O=C(NCc1ccco1)c1cccc2c1C(=O)N(C1CCCCC1)C2 | 8% | 0 | 4.8% | -2%
Cc1ccc(S(=O)(=O)NCCCC(=O)N2CCC(C)CC2)cc1 | -4% | x | 0.3% | 0%
O=C(NCCCCc1ccccc1)c1ccc(F)cc1 | 3% | x | 7.3% | x
COc1ccc(-c2nc(N)sc2C2(O)C(=O)Nc3c(Br)cc(F)cc32)cc1OC (stereo not given) | 0% | -7 | 2.4% | -9%
COc1ccc(N2C(=O)CC(Sc3n[nH]c(-c4cccc(C)c4)n3)C2=O)cc1 (stereo not given) | 4% | -6 | 0.6% | -9%
COc1ccc(C(CNc2ccc(S(=O)(=O)N3CCCC3)cc2[N+](=O)[O-])N2CCCC2)cc1 (stereo not given) | -7% | -3 | 2.4% | -9%
Cc1cccc(N(C)S(=O)(=O)c2c(C)[nH]c(C)c2C(=O)N2CCCC2)c1 | 1% | x | 0.2% | 7%
N#CCCNCC1(c2ccccc2)CCCC1 | -11% | 9 | 2.2% | -9%
CC(=O)Nc1sc(/C(C#N)=C\c2cccc(Cl)c2)nc1-c1ccc(C)cc1 | u | -18 | u | -8%
Cc1ccc(C(=O)Nc2ccccc2)cc1S(=O)(=O)N1CCN(C)CC1 | 0% | x | 1.7% | -15%
COc1cc(O)oc1C=Nc1ccc(Cl)cc1Cl | -3% | 8 | 1.8% | -9%
CC1(C)Cc2nc(-c3ccccc3)nc(NNC(=O)c3ccco3)c2CO1 | 2% | -4 | 3.0% | -7%
Cc1cc(N/N=C\c2ccccc2)nc(-c2ccccc2O)n1 | 11% | -5 | 1.3% | 9%
O=C(NCc1ccncc1)Nc1ccc(Cl)cc1Cl | 2% | -2 | 0.1% | -9%
O=C(O)c1ccccc1NS(=O)(=O)c1ccc2c(c1)OCCO2 | 2% | 10 | 5.1% | -9%
